MITF inhib: inhibitors of MITF; TRPM1 promoter luciferase, luminescence, 24 h; inhibition, % (no concentration beside the values); 37,000 compounds, 0.28% hits; AID 2240;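 active = most replicates at 85% or more, or half of them and the mean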;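 also: human melanocyte line stably carrying TRPM1 promoter luciferase reporter; 0% = vehicle wells and 100% = a positive control; the first replicate is given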
YB-1 expr inh: YB-1 expression inhibition | U2OS, qRT-PCR YB-1 vs CDIP delta delta Cp, 16 h; stronger effect = higher value; zero = DMSO, each unit about twofold | delta delta Cp (YB-1 minus CDIP) (no concentration beside the values) | 30,000 compounds, 0.37% hits;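 active = delta delta Cp rounded down to an integer at or above 3, about 3 SD of DMSO wells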;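 also: higher means less YB-1 transcript or more CDIP transcript relative to DMSO; stock transfer was 100 nL into about 100 µL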
PD-1 reverse act: reversal of PD-1 mediated T-cell inhibition | primary human CD4 T cells, PD-L1 beads, CellTiter-Glo 96 h | activation, % (concentration not given with the values) | 29,000 tested, under 10 active | AID 2316;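 active = replicate mean of 50% or more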;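 also: 0% = median vehicle wells and 100% = positive control; 100 nL library stock added to about 50 µL; numbers are from one replicate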
Shh pathway inh: blocks Sonic Hedgehog signaling; Shh-LIGHT2 Gli-luciferase reporter, 30 h; inhibition, % (no concentration beside the values); 22,000 compounds, 2.1% hits; AID 2313;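 active = replicate mean of 65% or more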;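 also: pathway switched on by Shh-conditioned medium diluted 1 in 25 in low serum; 100 nL library stock added to about 40 µL; 0% = median of neutral wells and 100% = positive control level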
Active calls of the source: *; / = not tested or not shown. Not all compounds are listed. The share of hits here may be higher or lower than overall.

SMILES	MITF inhib	YB-1 expr inh	PD-1 reverse act	Shh pathway inh
C[C@@H]1CN([C@@H](C)CO)C(=O)Cc2cc(NC(=O)CCN3CCOCC3)ccc2O[C@@H]1CN(C)Cc1ccncc1	9	0.062	/	-29
Cc1ccc2nc(-c3ccc(Cl)c(NC(=O)COc4ccc(Br)cc4)c3)oc2c1	-15	/	0.0	/
COc1ccccc1CC(=O)Nc1cc([N+](=O)[O-])ccc1OC	7	/	0.4	/
C[C@@H]1CCCCO[C@@H](CN(C)C(=O)c2ccncc2)[C@@H](C)CN([C@H](C)CO)C(=O)c2cc(NC(=O)CCCCCC(=O)Nc3ccccc3N)ccc2O1	-9	-0.043	1.2	/
CC(C)NC(=O)Nc1ccc2c(c1)CC(=O)N([C@H](C)CO)C[C@@H](C)[C@H](CN(C)C)O2	8	0.66	-0.1	-26
COc1ccc(NC(=O)Nc2ccc3c(c2)C(=O)N([C@@H](C)CO)C[C@H](C)[C@@H](CN(C)Cc2ccc(Cl)c(Cl)c2)O3)cc1	2	-0.08	0.1	12
CC(C)NC(=O)Nc1cccc2c1O[C@H](CN(C)C(=O)Nc1ccc(C(F)(F)F)cc1)[C@H](C)CN([C@@H](C)CO)C2=O	-1	-0.35	-0.6	-12
O=C(CSc1nnc(-c2cccs2)n1-c1ccccc1)N1CCc2ccccc21	-6	/	-0.2	/
Cc1noc(C)c1NC(=O)N(C)C[C@@H]1OCCCC[C@@H](C)Oc2ccc(NC(=O)Nc3ccc4c(c3)OCO4)cc2C(=O)N([C@H](C)CO)C[C@@H]1C	2	0.25	0.3	-5
C[C@@H]1CCCCO[C@@H](CN(C)Cc2ccc3c(c2)OCO3)[C@@H](C)CN([C@H](C)CO)C(=O)c2cc(NS(=O)(=O)c3ccccc3)ccc2O1	-12	0.029	/	45
Cc1nc2ccccc2n1CC(O)COCC1CC=CCC1 (centres undefined)	55	/	0.6	/
C[C@H](CO)N1C[C@H](C)[C@H](CN(C)S(C)(=O)=O)Oc2ccc(N(C)C)cc2C1=O	5	-0.16	0.8	-1
COc1ccc(NC(=O)N(C)C[C@H]2Oc3c(NC(=O)Nc4c(C)noc4C)cccc3C(=O)N([C@@H](C)CO)C[C@H]2C)cc1	0	0.097	1.4	-30
COc1ccc(S(=O)(=O)N(C)C[C@@H]2Oc3c(NC(=O)Nc4ccc(C(F)(F)F)cc4)cccc3C(=O)N([C@H](C)CO)C[C@H]2C)cc1	16	-0.35	/	-90
Cn1c(CN2CCOCC2)nnc1SCC(=O)Nc1cc(C(F)(F)F)ccc1Cl	-5	/	0.7	/
C[C@@H]1CN([C@@H](C)CO)C(=O)c2cc(NS(=O)(=O)c3cccs3)ccc2O[C@@H]1CN(C)S(C)(=O)=O	-12	-0.35	0.3	-12
CC(=O)O[C@@H]1CC2C(C)(C)CCC[C@]2(CO)C2=C1C(=O)C(C(C)C)C(=O)C2=O (some centres undefined)	68	0.43	-0.8	11
C[C@H]1CN([C@@H](C)CO)C(=O)Cc2cc(NC(=O)Nc3ccc(F)cc3)ccc2O[C@@H]1CN(C)Cc1ccc(C(=O)O)cc1	-2	0.22	-0.4	30
C[C@H](CO)N1C[C@H](C)[C@H](CN(C)S(=O)(=O)c2cccs2)Oc2ccc(NC(=O)Nc3ccccc3)cc2C1=O	-33	-0.16	-1.4	-4
Cc1noc(C)c1S(=O)(=O)Nc1cccc2c1O[C@H](CN(C)S(=O)(=O)c1ccc(F)cc1)[C@H](C)CN([C@H](C)CO)C2=O	-9	-0.56	-0.9	-26

Compound profiles (already shown). Values in the order: MITF inhib, YB-1 expr inh, PD-1 reverse act, Shh pathway inh
Results for `COc1ccc(NC(=O)N(C)C[C@H]2Oc3c(NC(=O)Nc4c(C)noc4C)cccc3C(=O)N([C@@H](C)CO)C[C@H]2C)cc1` : 0, 0.097, 1.4, -30
Results for `Cc1nc2ccccc2n1CC(O)COCC1CC=CCC1` (centres undefined) : 55, /, 0.6, /
Results for `C[C@@H]1CN([C@@H](C)CO)C(=O)Cc2cc(NC(=O)CCN3CCOCC3)ccc2O[C@@H]1CN(C)Cc1ccncc1` : 9, 0.062, /, -29

(list continues)
SMILES	MITF inhib	YB-1 expr inh	PD-1 reverse act	Shh pathway inh
CC(C)NC(=O)N(C)C[C@@H]1Oc2ccc(NC(=O)C3CCCCC3)cc2C(=O)N([C@@H](C)CO)C[C@@H]1C	5	-0.097	-0.7	-20
C[C@H](CO)N1C[C@H](C)[C@H](CN(C)S(=O)(=O)c2ccccc2)Oc2ccc(NS(=O)(=O)c3ccccc3)cc2CC1=O	-4	0.23	0.8	5
C[C@@H]1CN([C@H](C)CO)C(=O)Cc2cc(NC(=O)Cc3cn(C)c4ccccc34)ccc2O[C@H]1CN(C)S(=O)(=O)c1ccc(F)cc1	1	0.084	0.7	-17
CCOC(=O)CCCSc1nc2c(c(C(F)(F)F)c1C#N)CC(C)CC2 (centres undefined)	-39	/	0.3	/
CC1OC(Oc2cc(O)c3c(=O)c(OC4OCC(O)C(O)C4O)c(-c4ccc(O)cc4)oc3c2)C(O)C(O)C1O (centres undefined)	-31	0.83	0.0	-34
Cc1ccc(S(=O)(=O)Nc2ccc3c(c2)C(=O)N([C@H](C)CO)C[C@H](C)[C@H](CN(C)Cc2ccc(Oc4ccccc4)cc2)O3)cc1	-3	0.2	-0.2	4
CNS(=O)(=O)c1ccc(Br)cc1I	-8	-0.44	0.5	-22
Cc1ccc(CN2C(=O)C(O)(CC(=O)c3cccc(N)c3)c3cc(Cl)ccc32)cc1 (centres undefined)	52	/	-1.9	/
C/C(C=Nc1c(C)n(C)n(-c2ccccc2)c1=O)=C/c1ccccc1	9	-0.078	3.9	-16
COc1ccc(NC(=O)Nc2ccc3c(c2)CC(=O)N([C@H](C)CO)C[C@H](C)[C@H](CN(C)S(=O)(=O)c2cn(C)cn2)O3)cc1	1	0.14	1.0	-36
C[C@H]1CN([C@@H](C)CO)C(=O)c2cc(NC(=O)CCC(F)(F)F)ccc2O[C@H]1CN(C)S(=O)(=O)c1cn(C)cn1	1	-0.14	0.6	-21
C[C@@H]1CN([C@H](C)CO)C(=O)c2cc(NC(=O)CCCCCC(=O)Nc3ccccc3N)ccc2O[C@H]1CN(C)C(=O)Nc1ccc2c(c1)OCO2	-21	0.18	0.8	/
COc1ccc(S(=O)(=O)N(C)C[C@@H]2Oc3ccc(NS(=O)(=O)c4ccc(Cl)cc4)cc3CC(=O)N([C@H](C)CO)C[C@@H]2C)cc1	-2	-0.00059	0.2	-21
COc1ccc([N+](=O)[O-])cc1NC(=O)CN(C)S(=O)(=O)c1ccc(Br)cc1	4	/	1.5	/
C[C@@H]1CN([C@H](C)CO)C(=O)Cc2cc(NC(=O)CCC(F)(F)F)ccc2O[C@@H]1CN(C)Cc1ccc(Cl)c(Cl)c1	16	-15	-4.5	35
N#CCCN(Cc1cccnc1)C(=S)NC1CC2C=CC1C2 (centres undefined)	2	-0.32	0.1	4
C[C@H](CO)N1C[C@H](C)[C@@H](CN(C)S(=O)(=O)c2ccccc2)Oc2ccc(NC(=O)CCC(F)(F)F)cc2C1=O	1	-0.46	/	-27
CC1=C(C(=O)NN)Sc2ccccc2N1	6	0.038	1.5	-18
COc1ccc(CN(C)C[C@@H]2Oc3c(NC(=O)Nc4cccc5ccccc45)cccc3C(=O)N([C@@H](C)CO)C[C@@H]2C)cc1	10	-0.23	-1.7	32
Cc1noc(C)c1NC(=O)N(C)C[C@H]1Oc2ccc(NC(=O)Nc3ccc(C(F)(F)F)cc3)cc2CC(=O)N([C@@H](C)CO)C[C@H]1C	-4	-0.57	-1.8	/

Filtered by structure: the entries above with an aryl thioether with sulfur outside any ring
SMILES	MITF inhib	YB-1 expr inh	PD-1 reverse act	Shh pathway inh
O=C(CSc1nnc(-c2cccs2)n1-c1ccccc1)N1CCc2ccccc21	-6	/	-0.2	/
Cn1c(CN2CCOCC2)nnc1SCC(=O)Nc1cc(C(F)(F)F)ccc1Cl	-5	/	0.7	/
CCOC(=O)CCCSc1nc2c(c(C(F)(F)F)c1C#N)CC(C)CC2 (centres undefined)	-39	/	0.3	/

Carrying on:
SMILES	MITF inhib	YB-1 expr inh	PD-1 reverse act	Shh pathway inh
C[C@H]1CN([C@@H](C)CO)C(=O)Cc2cc(NS(C)(=O)=O)ccc2O[C@@H]1CN(C)Cc1ccc(C(=O)O)cc1	-10	0.25	0.7	16
CC1=CC(=O)C2=C(C)CC[C@@H]3[C@H](OC(=O)[C@H]3C)[C@@H]12	4	0.23	/	-50
Cc1noc(C)c1NC(=O)Nc1ccc2c(c1)C(=O)N([C@H](C)CO)C[C@H](C)[C@@H](CN(C)S(=O)(=O)c1ccccc1)OCCCC[C@@H](C)O2	10	0.36	0.3	-22
C[C@@H]1CN([C@H](C)CO)C(=O)Cc2cc(NS(C)(=O)=O)ccc2O[C@H]1CN(C)C(=O)Nc1ccc2c(c1)OCO2	-6	-0.072	/	3
C[C@@H]1CN([C@@H](C)CO)C(=O)Cc2cc(N(C)C)ccc2O[C@@H]1CN(C)Cc1ccccc1	29	0.13	/	2
C[C@H]1CN([C@@H](C)CO)C(=O)c2cc(NC(=O)Nc3ccc4c(c3)OCO4)ccc2O[C@H]1CN(C)S(=O)(=O)c1cn(C)cn1	15	0.21	0.7	-54
CSCCC(NC=O)C(=O)NC(CC(C)C)C(=O)NC(Cc1ccccc1)C(=O)O (centres undefined)	-8	0.046	/	-42
C[C@@H]1CN([C@H](C)CO)C(=O)c2cc(NC(=O)Nc3cccc4ccccc34)ccc2O[C@H]1CN(C)CC1CCCCC1	4	/	5.1	/
Cc1noc(C)c1NC(=O)Nc1cccc2c1O[C@H](CN(C)C(=O)Nc1c(C)noc1C)[C@H](C)CN([C@@H](C)CO)C2=O	-11	-0.17	0.2	2
C[C@H](CO)N1C[C@H](C)[C@@H](CN(C)Cc2ccc(C(F)(F)F)cc2)Oc2c(NS(=O)(=O)c3cn(C)cn3)cccc2C1=O	-12	-0.1	0.7	13
COc1ccc(C(=O)Nc2ccc(Cc3ccc(NC(=O)c4ccc(OC)cc4)c(O)c3)cc2O)cc1	-5	/	2.7	/
Cc1cc(=O)[nH]c(SCCOc2ccc(C(=O)c3ccccc3)cc2)n1	13	/	1.2	/
O[C@@H]1[C@@H](O)[C@H](OC/C=C/c2ccccc2)O[C@H](CO[C@@H]2OC[C@H](O)[C@H](O)[C@H]2O)[C@H]1O	6	-0.48	2.1	-53
O=c1cc(-c2ccccc2)oc2ccc(O)cc12	-13	0.38	2.2	-149
C[C@H]1CN([C@@H](C)CO)C(=O)c2cccc(NS(=O)(=O)c3cn(C)cn3)c2O[C@H]1CN(C)Cc1ccc2c(c1)OCO2	0	0.04	2.0	-36
CCOC(=O)c1ccccc1NC(=O)c1ccc(Cl)c(S(=O)(=O)N2CCOCC2)c1	-20	/	-5.4	/
C[C@H]1CN([C@@H](C)CO)C(=O)c2cccc(NC(=O)Nc3ccc(F)cc3)c2O[C@@H]1CN(C)S(=O)(=O)c1ccccc1	-18	0.2	1.3	-6
C[C@@H]1CCCCO[C@@H](CN(C)Cc2ccc(C(=O)O)cc2)[C@@H](C)CN([C@H](C)CO)C(=O)c2cc(NC(=O)C3CCCCC3)ccc2O1	-8	0.16	0.2	/
C[C@@H]1CCCCO[C@@H](CN(C)S(C)(=O)=O)[C@@H](C)CN([C@H](C)CO)C(=O)c2cc(NC(=O)Nc3ccc(C(F)(F)F)cc3)ccc2O1	24	0.23	-1.6	-3
C[C@@H]1CN([C@@H](C)CO)C(=O)c2cc(NC(=O)Cc3cn(C)c4ccccc34)ccc2O[C@H]1CN(C)Cc1ccc(C(F)(F)F)cc1	54	-0.51	-1.0	-2
OCCN(CCO)c1nc(-c2ccccc2)nc2sc(-c3ccccc3)cc12	14	/	-5.5	/
COc1ccc(S(=O)(=O)N(C)C[C@H]2Oc3ccc(NS(=O)(=O)c4cccs4)cc3C(=O)N([C@@H](C)CO)C[C@H]2C)cc1	-9	0.4	0.7	-8
Cc1noc(C)c1NC(=O)N(C)C[C@@H]1Oc2c(NC(=O)c3ccc(-c4nccs4)cc3)cccc2C(=O)N([C@H](C)CO)C[C@@H]1C	-1	-0.26	1.3	7
Cc1noc(C)c1S(=O)(=O)Nc1ccc2c(c1)CC(=O)N([C@H](C)CO)C[C@@H](C)[C@H](CN(C)Cc1ccc(C(=O)Nc3ccccc3N)cc1)O2	-15	-0.45	0.0	/
Cc1noc(C)c1NC(=O)N(C)C[C@@H]1Oc2ccc(NC(=O)Nc3ccc4c(c3)OCO4)cc2CC(=O)N([C@H](C)CO)C[C@@H]1C	-7	-0.19	/	4
CC(C)(O[C@@H]1O[C@H](CO)[C@@H](O)[C@H](O)[C@H]1O)[C@@H]1Oc2cc3oc(=O)ccc3cc2[C@H]1O	1	-0.73	0.0	-36
Cc1noc(C)c1S(=O)(=O)Nc1ccc2c(c1)CC(=O)N([C@H](C)CO)C[C@@H](C)[C@H](CN(C)Cc1ccccc1)O2	-3	0.019	/	4
Cc1noc(C)c1NC(=O)N(C)C[C@H]1Oc2ccc(NC(=O)Nc3ccc4c(c3)OCO4)cc2C(=O)N([C@H](C)CO)C[C@H]1C	-8	-0.21	1.0	3
